E coli growth = E. coli growth inhibition, primary screen, OD600; Escherichia coli growth, 23 h; stronger effect = lower value; OD600 absorbance (no concentration beside the values); hit rate 0.21% among 330,000;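 active means OD600 absorbance below the run mean of sample wells minus 3.6 SD, in any replicate, cut at about 0.56 in these data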;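 further: stock transfer was 300 nL into about 60 µL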
HNF4A DNA FP = change in binding of human HNF4A to DNA, primary screen, biochemical, fluorescence polarization, FITC-DNA; Hepatocyte nuclear factor 4-alpha (Homo sapiens), P41235; 1 h; hit rate 0.3% among 360,000; activity change, % at 10 µM; in the data active means activity change above about 30%, passing the limit was not always enough;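 further: controls were the assay level and a saturating level of protein; the project sought stronger binding though the title names inhibitors; some compounds called inactive have numbers as strong as hits; positive values seem to mean higher polarization but the record does not say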
rRNA inh HTS = reduced GFP signal of wild-type E. coli, primary screen, bacterial rRNA inhibitor project, GFP/RFP fluorescence, OD600, single point | E. coli WT GFP vs humanized-ribosome RFP mutants, 24 h; stronger effect = lower value; DMSO median 0, no signal -100 | GFP signal change (wild-type ribosome), % (test concentration not listed) | hit rate 1.6% among 350,000;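 active means significant combined selectivity score with lowered wild-type GFP, culture density cut under 30%, mutant RFP and density less affected; inactive means any of these conditions unmet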; further: one replicate is shown; some compounds called inactive have numbers as strong as hits
B2AR ag = beta2AR agonists driving receptor internalization, primary screen, cell-based, FAP fluorogen, flow cytometry. Am2.2-beta2AR cells; reference of the scale not given here. response, % (no concentration beside the values). hit rate 0.43% among 340,000. AID 504454, 2011;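 active means response above a set limit, near 3 SD of response in nonfluorescent compounds, cut at about 42% in these data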;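 further: stock transfer was 100 nL into about 11 µL; a reference agonist was the positive control; negative values mostly stem from fluorescent compounds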
Target sequence (P07550 whole entry, looked up): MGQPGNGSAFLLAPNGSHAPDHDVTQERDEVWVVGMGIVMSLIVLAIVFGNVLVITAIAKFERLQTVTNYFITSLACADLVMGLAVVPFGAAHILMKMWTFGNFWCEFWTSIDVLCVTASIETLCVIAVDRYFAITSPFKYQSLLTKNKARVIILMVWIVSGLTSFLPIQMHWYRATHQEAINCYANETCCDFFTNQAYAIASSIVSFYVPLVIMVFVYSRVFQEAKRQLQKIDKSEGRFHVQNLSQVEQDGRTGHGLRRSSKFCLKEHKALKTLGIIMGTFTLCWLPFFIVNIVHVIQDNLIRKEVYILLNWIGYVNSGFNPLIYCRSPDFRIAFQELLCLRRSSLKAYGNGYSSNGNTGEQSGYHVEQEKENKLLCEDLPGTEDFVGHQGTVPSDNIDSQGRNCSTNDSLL
ALR inh = inhibitors of human ALR sulfhydryl oxidase, primary screen, biochemical, H2O2 detection, HRP-luminol luminescence, single point; FAD-linked sulfhydryl oxidase ALR (Homo sapiens), P55789; purified ALR, DTT oxidation; inhibition, % (test concentration not listed); hit rate 3.8% among 290,000;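 active means mean and each replicate at 75% or more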;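 further: stock transfer was 7.5 nL into about 7.5 µL; 0% = neutral wells and 100% = wells with inactivated enzyme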
Target sequence (P55789 whole entry, looked up): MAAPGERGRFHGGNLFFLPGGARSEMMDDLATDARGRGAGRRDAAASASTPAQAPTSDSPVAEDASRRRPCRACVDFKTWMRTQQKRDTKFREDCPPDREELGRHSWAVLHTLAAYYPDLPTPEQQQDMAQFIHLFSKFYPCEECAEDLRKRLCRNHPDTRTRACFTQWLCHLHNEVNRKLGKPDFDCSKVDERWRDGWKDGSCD
UCH37 DUB inh = inhibitors of human UCH37 deubiquitinase, primary screen, biochemical, Ub-AMC cleavage, fluorescence; inhibition, % (no concentration beside the values); purified proteasome/UCH37; Ubiquitin carboxyl-terminal hydrolase isozyme L5 (Homo sapiens), Q9Y5K5; hit rate 0.33% among 330,000;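 active means mean of two replicates above 20%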;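 further: 0% = compound-free wells with enzyme and 100% = wells lacking proteasome; stock transfer was 100 nL into about 20 µL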
Target sequence (Q9Y5K5 whole entry, looked up): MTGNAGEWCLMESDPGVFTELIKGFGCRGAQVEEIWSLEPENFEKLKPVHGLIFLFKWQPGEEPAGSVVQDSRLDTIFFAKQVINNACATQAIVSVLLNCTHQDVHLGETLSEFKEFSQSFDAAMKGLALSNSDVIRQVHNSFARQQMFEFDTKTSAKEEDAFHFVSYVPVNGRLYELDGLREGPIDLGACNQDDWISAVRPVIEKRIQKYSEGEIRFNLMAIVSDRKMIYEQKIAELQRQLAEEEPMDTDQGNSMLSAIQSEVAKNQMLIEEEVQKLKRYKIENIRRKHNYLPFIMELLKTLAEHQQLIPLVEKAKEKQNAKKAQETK
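System: Proteasome-associated human UCH37 deubiquitinase; Input: 0.15 nM proteasome in added enzyme buffer; Also added: Ub-AMC substrate from 1 µM stock; Incubation: 30 min compound-proteasome preincubation then 25 min substrate reaction, room temperature; Detection: fluorescence, ex 355 nm, em 460 nm; Read-out: % inhibition of Ub-AMC cleavage fluorescence; Benchmarks: no-proteasome and no-compound wells.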
FGF22 binding = binders of human FGF22 protein, primary screen, FGF22 synaptogenesis inhibitor project, biophysical, thermal shift, single point | Fibroblast growth factor 22 (Homo sapiens), Q9HCT0 | recombinant FGF22 thermal shift, SYPRO orange fluorescence; percent of sucrose octasulfate shift, DMSO zero | calls only at 9.99 µM | hit rate 1.5% among 340,000;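 active means melting point raised past a set limit in the mean and every replicate; three in four hits are not shown here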
rRNA inh HTS OD600 = recorded beside rRNA inh HTS, whose call it bears; OD600 change, %; measured here: OD600 growth;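 optical density of the mix in the first replicate; 0 = DMSO median and -100 = no signal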
rRNA inh HTS RFP = second read-out of rRNA inh HTS, no call of its own (marks repeat the call); RFP signal change, %; measured here: RFP humanized mutant strains;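 first replicate; 0 = DMSO median and -100 = no signal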
Active calls of the source: *; i = inactive; nt = not tested or not shown; & = joins results of further samples.

SMILES	E coli growth	HNF4A DNA FP	rRNA inh HTS	rRNA inh HTS OD600	rRNA inh HTS RFP	B2AR ag	ALR inh	UCH37 DUB inh	FGF22 binding
Cc1ccc(C(C)C)c(OCc2ccc(C(=O)N/N=C/c3ccc(C(=O)O)cc3)cc2)c1	nt	-9.4	3	7	-3.7	12	-4	nt	i
CN(C(=O)c1cccc(C#CC(C)(C)O)c1)C1CCCN(Cc2ccccc2F)C1 (configuration not stated)	0.65	-1.4	-5	1	-2.5	1	nt	3.3	i
O=C(NC1CCCC1)c1cccc(S(=O)(=O)N2CCCC2)c1	0.67	2.5	5	15	-1.7	2	-2	0.4	i
COc1ccc(-c2oc3c(c2C#CC2(O)CCCCC2)C(OC(C)=O)CCC3)cc1 (configuration not stated)	nt	0.2	0	2	9.0	nt	nt	nt	i
O=C(NCC1CCCO1)c1ccc2c(c1)S(=O)(=O)c1ccccc1C2=O (configuration not stated)	0.66	-1.1	-10	-8	-1.6	-5	nt	1.7	i
CNC(=S)N(Cc1cc2cc(C)cc(C)c2[nH]c1=O)C1CCCC1	0.7	0.7	-23	-22	2.0	1	-2	-8.2	i
CCN(CC)CCOC(=O)/C=C/c1ccccc1OC	0.64	3.5	nt	nt	nt	3	-1	-32	nt
O=C(CSc1nnc(Cc2ccccc2)n1Cc1ccccc1)NCc1ccco1	0.76	-0.8	nt	nt	nt	1	-6	3.4	nt
CCOc1ccc(NC(=S)N/N=C(\C)Cc2ccc(OC)cc2)cc1	nt	0.6	6	6	-0.4	-12	nt	nt	i
Cc1cccc(C(=O)NNC(=O)c2ccccc2C)c1	0.73	3.1	3	-6	3.8	-11	nt	4.7	i
COc1ccc(C(CNC(=O)c2ccc(S(=O)(=O)N(C)C)cc2)N2CCCC2)cc1 (configuration not stated)	0.69	2.9	7	7	8.4	-2	-1	1.2	i
CCC(C)[C@H](NC(=O)NCc1ccco1)C(=O)O (some centres not stated)	0.73	2.6	9	11	-2.4	8	-7	2.0	i
NC(=O)COc1ccc(Cc2ncc(C(F)(F)F)cc2Cl)cc1	0.67	3.2	5	-3	-4.8	-2	-2	-0.3	i
CCN(CC)S(=O)(=O)c1ccc(N2CCN(c3cccc(OC)c3)CC2)c([N+](=O)[O-])c1	0.73	0.2	nt	nt	nt	8	-9	2.8	nt
CCOC(=O)c1cnc(Nc2nc3ccccc3o2)nc1CSc1ncccn1	0.78	nt	nt	nt	nt	nt	-7	1.9	nt
NC(=O)c1ccc(NC(=O)CN2CCN(S(=O)(=O)c3ccc4ccccc4c3)CC2)cc1	0.69	1.8	nt	nt	nt	3	0	-2.3	i
O=C(c1cc2cc(F)ccc2[nH]1)N1CCc2ccccc21	0.68	-0.8	9	13	2.3	-6	0	1.2	i
CCOc1ccc(N2CC(C(=O)Nc3ccc4c(c3)OCCO4)CC2=O)cc1 (configuration not stated)	0.68	0.2	1	-4	-1.2	2	nt	1.8	i
Cc1c(C=O)n(C)n(-c2ccccc2)c1=O	0.69	1.8	11	5	4.4	0	2	3.8	i
Cc1cccc2nc3c(nc12)CCCC3	0.63	-3.3	13	13	-1.2	-4	nt	4.1	i
O=c1c(-c2ccco2)[n+]([O-])c2ccccc2n1OCc1c(F)cccc1F	0.64	2.9	12	4	3.2	-5	50	7.7	i
COc1ccc(S(=O)(=O)N2CCCC(C(=O)NCC3CCCO3)C2)cc1C (configuration not stated)	0.65	0.6	2	-4	-2.0	-2	-9	2.9	i
CCc1nc(SCC(=O)NCCc2ccc(OC)c(OC)c2)c2c(=O)n(C)c(=O)n(C)c2n1	0.76	2.5	-5	0	-6.9	-9	-23	8.8	i
CCC(=O)N1CCC1(C)C(=O)Nc1cc(OC)ccc1OC (configuration not stated)	nt	-0.2	2	10	1.4	nt	nt	nt	i
Cc1ccc(C(O)c2ncc(-c3cccc(C(F)(F)F)c3)[nH]2)cc1 (configuration not stated)	nt	0.2	-21	-38	10	nt	nt	nt	i
CCN(CC)c1ccc2c(C)c(-c3ccc(N)cc3)c(=O)oc2c1	0.71	-2.7	nt	nt	nt	26	87*	-80	nt
N#Cc1nc(COc2ccccc2)oc1NCCN1CCOCC1	0.68	0.1	nt	nt	nt	4	7	5.3	nt
O=c1ccc(-c2ccc(S(=O)(=O)N3CCN(c4ccccc4)CC3)o2)n[nH]1	0.64	2.0	3	-8	-2.8	0	3	-1.9	i
COc1ccc(-n2ncc3c2CC(C)(C)CC3NC(=O)Cc2nonc2C)cc1 (configuration not stated)	0.71	-0.1	-3	4	-1.9	1	-5	1.1	i
Cc1ccc(NC(=S)NCc2ccccn2)cc1	0.71	-0.3	nt	nt	nt	5	38	0.9	nt
CCNC(=S)Nc1ccc(OCc2nc3ccccc3s2)cc1	0.59	0.2	-17	-11	-1.0	7	30	3.8	i
COC(=O)[C@@H](NCc1cccc(CN([C@H](C(=O)OC)C(C)C)S(C)(=O)=O)c1)C(C)C	nt	0.1	-9	-5	-8.5	-1	-13	-0.3	i
C=CCn1c(NC(=O)c2ccc(Br)o2)c(S(=O)(=O)c2ccccc2)c2nc3ccccc3nc21	0.74	11	nt	nt	nt	6	9	-190	nt
COc1cc(OC)cc(C(=O)Nc2ccc(N3CCOCC3)cc2N2CCOCC2)c1	0.69	-2.2	nt	nt	nt	2	-1	3.2	i
CCOCCc1nnc(NC(=O)CS(=O)(=O)Cc2ccccc2)s1	0.69	-3.3	2	2	-1.9	2	0	1.0	i
CCC1(C(=O)O)NC(c2cc(OC)ccc2O)C2C(=O)N(Cc3ccccc3)C(=O)C21 (configuration not stated)	0.7	0.8	8	8	1.6	-1	87*	4.6	i

Random excerpt: 3 entries already listed.
SMILES	E coli growth	HNF4A DNA FP	rRNA inh HTS	rRNA inh HTS OD600	rRNA inh HTS RFP	B2AR ag	ALR inh	UCH37 DUB inh	FGF22 binding
Cc1cccc(C(=O)NNC(=O)c2ccccc2C)c1	0.73	3.1	3	-6	3.8	-11	nt	4.7	i
CCNC(=S)Nc1ccc(OCc2nc3ccccc3s2)cc1	0.59	0.2	-17	-11	-1.0	7	30	3.8	i
COC(=O)[C@@H](NCc1cccc(CN([C@H](C(=O)OC)C(C)C)S(C)(=O)=O)c1)C(C)C	nt	0.1	-9	-5	-8.5	-1	-13	-0.3	i

(list continues)
SMILES	E coli growth	HNF4A DNA FP	rRNA inh HTS	rRNA inh HTS OD600	rRNA inh HTS RFP	B2AR ag	ALR inh	UCH37 DUB inh	FGF22 binding
O=C(c1cnn2c(C(F)(F)F)cc(-c3ccc4c(c3)OCO4)nc12)N1CCCC1	0.7	2.1	nt	nt	nt	-4	-2	-13	nt
O=C(Nc1ccccc1)c1cc2ccccc2s1	0.73	-1.7	11	3	-5.8	-1	nt	1.3	i
CCCCCC1CC(CC(=O)Nc2ccc([N+](=O)[O-])cc2)C(=O)O1 (configuration not stated)	0.65	-0.1	-11	-3	1.3	4	-5	4.8	i
Cc1cccc(N2CCN(C(=O)CCN3C(=S)NC(C)(C)CC3C)CC2)c1C (configuration not stated)	0.64	1.7	-4	-20	-0.9	5	nt	-0.4	i
COc1ccc(Oc2coc3cc(OC(=O)c4cccs4)ccc3c2=O)cc1	0.73	-2.0	nt	nt	nt	-2	1	-13	nt
COCCNC(=O)c1onc(CSc2cc(C)ccc2C)c1C(=O)O	0.68	-0.8	1	-3	1.7	0	3	0.2	i
CC1CC(=Cc2ccc(N)cc2)C(=O)O1 (configuration not stated)	0.68	-0.2	6	8	1.3	1	nt	1.9	i
N#CCC(=O)Nc1ccc(C(=O)OC(C(=O)Nc2cc(C(F)(F)F)ccc2Cl)c2ccccc2)cc1 (configuration not stated)	0.69	8.8	0	11	-1.3	6	3	1.2	i
COc1ccc(NC(=O)CSc2nnc(-c3cccs3)n2C)cc1OC	0.69	-1.3	nt	nt	nt	-17	-14	1.7	nt
CCCCSc1nnc(CSc2ncccn2)n1C	0.65	4.2	16	-8	-0.9	3	-8	-0.9	i
Cc1cc(C)c(C(=O)N(C)C2CCCN(Cc3ccccc3F)C2)o1 (configuration not stated)	0.71	4.3	-1	1	-0.7	14	-2	-1.3	i
COc1ccc(S(=O)(=O)N(C)C[C@H]2Oc3ccc(NC(=O)Nc4ccc(C(F)(F)F)cc4)cc3C(=O)N([C@H](C)CO)C[C@@H]2C)cc1	nt	-0.4	3&8	-1&6	2.5&9.0	6	-2	-0.2	i
CCOC(=O)c1cnc2ccc(Br)cc2c1NCC(C)O (configuration not stated)	0.75	2.6	nt	nt	nt	-4	nt	2.9	nt
CCOc1c2ccc(C(=O)NCC34CC5CC(CC(C5)C3)C4)cc2nn1CC	0.75	-0.5	-22	-35	15	7	-5	-35	i
CC(=O)N1CCN(C(=O)CCc2nc3ccccc3c(=O)[nH]2)CC1	0.72	-1.4	17	14	-5.6	5	-1	3.3	i
COc1ccc(CNCCCSc2ncccn2)cc1OC	0.67	-11	16	11	4.7	-4	nt	5.0	i
COc1ccc(CN2CCC[C@]3(N[C@H](c4ccccc4)[C@@H]4C(=O)N(C)C(=O)[C@@H]43)C2=O)cc1	nt	-3.1	6	-1	-11	nt	nt	nt	i
COC(=O)c1sccc1-n1cccc1C(=O)NCc1ccccc1	0.79	0.4	nt	nt	nt	4	3	1.1	nt
Cc1ccccc1OCCC(=O)OCC(=O)Nc1ccc(C(N)=O)cc1	0.65	4.2	0	-6	-0.4	-5	8	2.4	i
COc1cc(C2c3c([nH]c(=O)[nH]c3=O)Nc3ccc4ccccc4c32)cc(OC)c1OC (configuration not stated)	0.65	-4.9	-3	-16	-3.6	-5	-1	-124	i
Cn1cc(/C=C(\C(=O)O)C(C(=O)O)=C2CCCCC2)c2ccccc21	nt	-5.1	17	8	2.4	-1	5	5.8	i
CCCCN(C)S(=O)(=O)c1ccc(C(=O)Nc2nnc(CSC)o2)cc1	0.74	-4.0	nt	nt	nt	3	5	1.4	nt
c1ccc2c(c1)oc1c(Nc3ccc(CN4CCOCC4)cc3)ncnc12	0.65	5.1	nt	nt	nt	6	-3	3.2	nt
O=C(NCCNc1ccc([N+](=O)[O-])cc1C(F)(F)F)c1ccccc1F	0.73	0.8	nt	nt	nt	-1	-2	5.9	nt
Cc1ccc(C)c(N2CCN(C(=O)CCC(=O)Nc3nnc(C(F)(F)F)s3)CC2)c1	0.69	-0.2	-41	-70	-5.1	7	-5	-0.2	i
O=C(C1=NNC2C(=O)N(c3ccccc3)C(=O)C12)c1nc(Cl)ccc1Cl (configuration not stated)	0.68	-0.1	nt	nt	nt	0	4	10	nt
Brc1cccc(OCCCN2CCCCCC2)c1	0.65	-4.2	-1	0	1.4	8	-5	5.5	i
Cc1ccc(C(=O)c2c[nH]cc2-c2ccccc2)cc1	0.74	1.4	nt	nt	nt	-7	nt	5.7	nt
CC(c1ccccc1C(=O)O)c1cc(F)cc2ccccc12 (configuration not stated)	0.67	0.1	-19	-43	0.4	nt	nt	2.7	i
Cc1cc(NC(=O)c2ccccc2Cl)n(C(C)(C)C)n1	0.7	-0.5	21	11	5.4	-2	-6	4.1	i
O=C(CCn1c(=S)[nH]c2ccccc2c1=O)NCCc1ccccc1	0.67	2.9	4	-1	-2.4	-11	-3	7.6	i

The list is partial (hit frequency here may not be typical).
